Ecoli rRNA inh = reduced GFP signal of wild-type E. coli, primary screen, bacterial rRNA inhibitor project, GFP/RFP fluorescence, OD600, single point; GFP signal change (wild-type ribosome), % (no concentration beside the values); 350,000 tested, 1.6% active; E. coli WT GFP vs humanized-ribosome RFP mutants, 24 h; stronger effect = lower value; DMSO median 0, no signal -100;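 active = significant combined selectivity score with lowered wild-type GFP, culture density cut under 30%, mutant RFP and density less affected; inactive = any of these conditions unmet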; also: one replicate is shown; some compounds called inactive have numbers as strong as hits
Ecoli rRNA inh OD600 = second read-out of Ecoli rRNA inh, no call of its own (marks repeat the call); OD600 change, %; measured here: OD600 growth;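 optical density of the mix in the first replicate; 0 = DMSO median and -100 = no signal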
Ecoli rRNA inh RFP = recorded beside Ecoli rRNA inh, whose call it bears; RFP signal change, %; measured here: RFP humanized mutant strains;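 first replicate; 0 = DMSO median and -100 = no signal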
* hit, by the source's call. Only part of the results is shown, so the mix of outcomes need not match the whole.

Ecoli rRNA inh	Ecoli rRNA inh OD600	SMILES	Ecoli rRNA inh RFP
3.4	10.3	O=C(Nc1ccc2c(c1)[C@@H]1C[C@H](CC(=O)N3CCOCC3)O[C@H](CO)[C@@H]1O2)NC1CCCCC1	0.3
6.5	11.7	C[C@@H]1CN([C@H](C)CO)C(=O)c2cccc(NC(=O)Nc3ccc4c(c3)OCO4)c2O[C@@H]1CN(C)C	-1.1
0.7	2.4	CCCNC(=O)N1C[C@H](C)[C@@H](OC)CN(C)C(=O)c2cc(NC(=O)CCC)ccc2OC[C@@H]1C	-0.2
-1.2	2.1	C[C@H](CO)N1C[C@H](C)[C@@H](CN(C)S(=O)(=O)c2ccccc2F)OCc2ccccc2-c2c(n(C)c3ccccc23)C1=O	-2.4
-0.7	3.5	C[C@@H]1CN([C@@H](C)CO)C(=O)c2ccccc2-c2ccccc2CO[C@@H]1CN(C)S(=O)(=O)c1cccc(C#N)c1	1.4
6.4	3.3	Cc1ccc(S(=O)(=O)NCC[C@@H]2CC[C@H](NC(=O)C3CCOCC3)[C@@H](CO)O2)cc1	-1.8
4.4	-7.8	C[C@@H]1CN([C@H](C)CO)C(=O)c2cc(NS(=O)(=O)c3ccccc3)ccc2O[C@@H](C)CCCCO[C@@H]1CN(C)Cc1ccncc1	4.4
-4.5	-16.0	CCCC#Cc1ccc2c(c1)O[C@H](CN(C)CC1CCOCC1)[C@@H](C)CN([C@@H](C)CO)S2(=O)=O	14.8
-1.5	0.4	COc1ccccc1CN1[C@@H]2c3cccc(=O)n3C[C@H]1[C@H](CO)[C@H]2C(=O)N1CCc2ccccc2C1	0.9
0.3	3.1	O=C(Cc1ccccn1)NCC[C@H]1CC[C@@H](NS(=O)(=O)c2ccc(Cl)cc2)[C@@H](CO)O1	2.2
9.0	9.4	CC(C)NC(=O)Nc1ccc2c(c1)CC(=O)N([C@H](C)CO)C[C@H](C)[C@H](CN(C)S(C)(=O)=O)O2	-1.2
-2.4	-2.7	O=C(NC1CCCCC1)N[C@@H]1CC[C@@H](CCNS(=O)(=O)c2ccccc2)O[C@@H]1CO	-1.7
8.3	19.1	CCCNC(=O)C1(C)CCN(C(=O)c2ccc(C)c(F)c2)C1 (stereo unspecified)	1.2
24.5	0.5	CCOC(=O)Cc1c(-c2cccc(Br)c2)nc2c3ccccc3ccn12	58.8
3.8	13.6	COc1ccc(NC(=O)N(C)C[C@@H]2Oc3ccc(NS(=O)(=O)c4ccc(F)cc4)cc3CC(=O)N([C@H](C)CO)C[C@H]2C)cc1	-2.2
-6.3	-5.9	C[C@H]1CN([C@@H](C)CO)C(=O)c2cccc(NC(=O)Nc3ccccc3)c2O[C@@H]1CN(C)Cc1ccc(C(=O)Nc2ccccc2N)cc1	-1.8
-1.9	2.3	Cc1ccc(S(=O)(=O)N(C)C[C@H]2Oc3ccc(NC(=O)CCCCCC(=O)Nc4ccccc4N)cc3C(=O)N([C@@H](C)CO)C[C@H]2C)cc1	-1.4
1.1	-4.0	CN(C)CCCNc1nc2cc(-c3ccccc3CO)sc2c(=O)n1C	1.2
-23.1	-50.5	CN1c2ccc(Br)cc2[C@H]2[C@H](CCN2C(=O)c2cccc(F)c2)[C@H]1CO	-8.6
-0.1	3.9	COc1ccc(NC(=O)N(C)C[C@@H]2OCCCC[C@@H](C)Oc3ccc(NS(=O)(=O)c4ccc(Cl)cc4)cc3C(=O)N([C@@H](C)CO)C[C@H]2C)cc1	-0.2
-0.1	0.5	C[C@@H]1CCCCO[C@H](CN(C)C)[C@H](C)CN([C@@H](C)CO)C(=O)c2cc(N(C)C)ccc2O1	1.4
4.5	11.7	CO[C@H]1CN(C)C(=O)c2ccc(NC(=O)Nc3ccccc3)cc2OC[C@H](C)N(CC2CC2)C[C@H]1C	-0.7
-0.4	-7.3	C[C@@H]1CN([C@@H](C)CO)C(=O)c2cc(NC(=O)C3CCCCC3)ccc2O[C@H]1CN(C)C(=O)Nc1ccccc1	-2.2
-0.7	4.9	Cc1ccc(S(=O)(=O)N(C)C[C@@H]2Oc3c(NC(=O)c4nc5ccccc5s4)cccc3C(=O)N([C@H](C)CO)C[C@@H]2C)cc1	0.3
-54.7	-79.4	OC[C@H]1Nc2ccc(-c3cccc(F)c3)cc2[C@@H]2[C@H]1CCN2Cc1ccc(F)cc1	-16.8
2.1	-1.9	C[C@@H]1CCCCO[C@@H](CN(C)C(=O)Nc2ccc3c(c2)OCO3)[C@@H](C)CN([C@H](C)CO)C(=O)c2cc(NC(=O)Cc3ccccc3)ccc2O1	0.0
-3.5	3.2	CC(=O)N(C)C[C@H]1[C@@H](c2ccc(-c3cccc(C#N)c3)cc2)[C@@H](CO)N1C(C)=O	-3.2
1.7	7.7	CC(C)NC(=O)Nc1ccc2c(c1)C(=O)N(C)C[C@@H](C)[C@H](CN(C)C)O2	-0.9
-3.8	-12.3	C[C@H]1CN([C@@H](C)CO)S(=O)(=O)c2ccc(C#Cc3ccccc3F)cc2O[C@H]1CN(C)C(=O)Cc1cccnc1	10.0
23.1	20.4	CCCCNC(=O)CN1C(=O)CSc2ccc(S(=O)(=O)N3CCOCC3)cc21	10.0
1.3	2.4	C[C@H](CO)N1C[C@H](C)[C@H](CN(C)Cc2ccccc2)Oc2ccc(NC(=O)Cc3ccccc3)cc2C1=O	0.6
-10.4	-10.9	COc1ccc(N2CC(C)(C)[C@H](CC(=O)Nc3ccc(Br)cc3)C2=O)cc1	-1.0
-5.8	-15.3	C[C@@H]1CN([C@H](C)CO)C(=O)c2cccc(NS(=O)(=O)c3ccc(Cl)cc3)c2O[C@@H]1CN(C)Cc1ccc2c(c1)OCO2	3.6
-2.0	-2.0	C[C@H](CO)N1C[C@H](C)[C@@H](CN(C)S(=O)(=O)c2ccc(Cl)cc2)Oc2ccc(NC(=O)C3CC3)cc2C1=O	-2.8
-3.5	-0.1	C[C@@H]1CN([C@H](C)CO)C(=O)Cc2cc(NC(=O)C3CC3)ccc2O[C@@H]1CN(C)Cc1ccc(C(=O)Nc2ccccc2N)cc1	-1.2
-7.0	-11.3	CC(=O)N(C)C[C@H]1Oc2cc(-c3ccccc3)ccc2S(=O)(=O)N([C@@H](C)CO)C[C@@H]1C	-0.3
1.8	2.0	CCC(=O)N1[C@@H](CO)[C@@H](c2ccccc2)[C@@H]1CN(CC)C(=O)c1ccc(F)cc1	1.9
6.5	3.6	CN(C)C(=O)c1cccc(-c2ccc([C@H]3[C@@H](CO)N4CCCCN(CCC(F)(F)F)C[C@@H]34)cc2)c1	-0.8
5.2	5.6	O=C(Nc1ccc(F)cc1)N[C@@H]1CC[C@H](CC(=O)N2CCCCC2)O[C@H]1CO	1.8
1.8	1.9	Cc1cccc(C)c1NC(=O)C1(C)CCC(=O)N1C1CCN(Cc2ccccc2)CC1 (stereo unspecified)	0.0
-2.2	-1.5	Cc1ccc(S(=O)(=O)N(C)C[C@@H]2OCCCC[C@H](C)Oc3ccc(NC(=O)c4ccncc4)cc3C(=O)N([C@@H](C)CO)C[C@H]2C)cc1	2.7
1.3	2.5	CCCN1[C@H](C(=O)NCC)[C@@H](CO)[C@@H]2Cn3c(ccc(-c4ccccc4F)c3=O)[C@@H]21	-0.1
-1.5	-4.9	C[C@@H]1CN([C@@H](C)CO)C(=O)c2cccc(NC(=O)c3ccncc3)c2O[C@H]1CN(C)Cc1ccccc1	-1.1
2.4	5.2	CCCNC(=O)N1C[C@@H](C)[C@H](OC)CN(C)C(=O)c2cc(NS(=O)(=O)CC)ccc2OC[C@@H]1C	-0.2
0.6	2.8	COc1ccc(NC(=O)Nc2ccc3c(c2)C(=O)N(C)C[C@@H](OC)[C@@H](C)CN[C@@H](C)CO3)cc1	-1.1
3.0	10.8	C[C@H](CO)N1C[C@H](C)[C@@H](CN(C)C(=O)Nc2ccc3c(c2)OCO3)OCCCC[C@H](C)Oc2ccc(NC(=O)CCCN(C)C)cc2C1=O	1.3
-1.1	0.5	CC(C)NC(=O)Nc1ccc2c(c1)C(=O)N([C@@H](C)CO)C[C@@H](C)[C@H](CN(C)C(=O)NC(C)C)OCCCC[C@H](C)O2	-2.5
1.4	1.8	CO[C@H]1CN(C)C(=O)c2cc(NC(=O)c3cnccn3)ccc2OC[C@H](C)N(C(C)=O)C[C@@H]1C	1.3
4.0	2.9	O=C(C[C@H]1CC[C@H](NC(=O)c2ccc(F)cc2)[C@H](CO)O1)NCCc1ccncc1	1.3
-1.4	3.5	CNC[C@@H]1Oc2ncc(-c3ccc(OC)cc3)cc2C(=O)N([C@H](C)CO)C[C@H]1C	-1.3

Whole records, quoted from the list. Order of screens: Ecoli rRNA inh | Ecoli rRNA inh OD600 | Ecoli rRNA inh RFP
O=C(Nc1ccc(F)cc1)N[C@@H]1CC[C@H](CC(=O)N2CCCCC2)O[C@H]1CO reads 5.2 | 5.6 | 1.8
Cc1ccc(S(=O)(=O)N(C)C[C@@H]2OCCCC[C@H](C)Oc3ccc(NC(=O)c4ccncc4)cc3C(=O)N([C@@H](C)CO)C[C@H]2C)cc1 reads -2.2 | -1.5 | 2.7
CN(C)C(=O)c1cccc(-c2ccc([C@H]3[C@@H](CO)N4CCCCN(CCC(F)(F)F)C[C@@H]34)cc2)c1 reads 6.5 | 3.6 | -0.8
C[C@H](CO)N1C[C@H](C)[C@H](CN(C)Cc2ccccc2)Oc2ccc(NC(=O)Cc3ccccc3)cc2C1=O reads 1.3 | 2.4 | 0.6
O=C(C[C@H]1CC[C@H](NC(=O)c2ccc(F)cc2)[C@H](CO)O1)NCCc1ccncc1 reads 4.0 | 2.9 | 1.3

Fetched by compound from the list above (two):
Ecoli rRNA inh	Ecoli rRNA inh OD600	SMILES	Ecoli rRNA inh RFP
-1.1	0.5	CC(C)NC(=O)Nc1ccc2c(c1)C(=O)N([C@@H](C)CO)C[C@@H](C)[C@H](CN(C)C(=O)NC(C)C)OCCCC[C@H](C)O2	-2.5
1.7	7.7	CC(C)NC(=O)Nc1ccc2c(c1)C(=O)N(C)C[C@@H](C)[C@H](CN(C)C)O2	-0.9

The list continues.
Ecoli rRNA inh	Ecoli rRNA inh OD600	SMILES	Ecoli rRNA inh RFP
2.6	3.9	C[C@@H]1CCCCO[C@@H](CN(C)C(=O)Nc2ccccc2)[C@H](C)CN([C@H](C)CO)C(=O)c2cc(NS(=O)(=O)c3ccc(Cl)cc3)ccc2O1	1.7
-1.6	-8.9	C[C@H]1CN([C@@H](C)CO)C(=O)Cc2cc(NC(=O)C3CCCCC3)ccc2O[C@@H]1CN(C)C(=O)Nc1ccc(F)cc1	-2.9
2.8	-2.8	Cc1ccc(S(=O)(=O)N(C)C[C@H]2Oc3ccc(NC(=O)Nc4ccc(F)cc4)cc3C(=O)N([C@@H](C)CO)C[C@@H]2C)cc1	3.3
-48.8	-52.7	COc1ccc(S(=O)(=O)N2C[C@H](O)COC[C@H]3O[C@H](CC(=O)NCc4ccc(Cl)c(Cl)c4)CC[C@@H]32)cc1	8.1
-4.2	1.1	C/C=C/c1cnc2c(c1)C(=O)N([C@H](C)CO)C[C@@H](C)[C@@H](CN(C)C(=O)C1CCOCC1)O2	-0.7
-0.8	-9.5	C[C@H]1CN([C@@H](C)CO)S(=O)(=O)c2ccc(-c3cccc(C#N)c3)cc2O[C@@H]1CN(C)C(=O)C1CC1	-1.0
5.1	16.4	COCC(=O)N1CC2(C1)CN(C(=O)CN1CCOCC1)[C@@H](CO)c1c2c2ccc(OC)cc2n1C	-3.7
3.0	6.0	CC(=O)Nc1ccc2c(c1)C(=O)N(C)[C@H]1CC[C@@H](CC(=O)NCc3ccc(F)cc3)O[C@@H]1CO2	-2.4
-1.2	-1.3	C[C@H](CO)N1C[C@H](C)[C@@H](CN(C)S(=O)(=O)c2ccc(Cl)cc2)OCCCC[C@H](C)Oc2ccc(NC(=O)c3ccccc3)cc2C1=O	-2.6
1.6	2.5	C[C@H](CO)N1C[C@H](C)[C@@H](CN(C)S(C)(=O)=O)Oc2ncc(-c3cccnc3)cc2C1=O	-5.1
6.0	5.0	C[C@H]1CN([C@@H](C)CO)C(=O)c2ccccc2-c2ccccc2CO[C@@H]1CN(C)Cc1ccc(C(=O)O)cc1	-3.2
-5.7	-4.5	CO[C@@H]1CN(C)C(=O)c2ccc(NC(=O)C3CCC3)cc2OC[C@H](C)N(Cc2nccs2)C[C@H]1C	-2.4
-7.9	-5.2	C[C@@H]1CN([C@@H](C)CO)C(=O)Cc2cc(NC(=O)Nc3cccc4ccccc34)ccc2O[C@H]1CN(C)C(=O)NC1CCCCC1	-1.6
-2.1	-8.4	COc1ccccc1CNC(=O)C[C@@H]1CC[C@@H]2[C@H](COc3ccc(NS(=O)(=O)c4ccc(C)cc4)cc3C(=O)N2C)O1	0.7
-0.4	-5.0	C[C@H](CO)N1C[C@H](C)[C@@H](CN(C)Cc2ccccc2)OCCCC[C@H](C)Oc2ccc(NC(=O)Nc3ccc(F)cc3)cc2C1=O	8.5
10.3	13.9	Cc1ccccc1-c1cc2nc(NCc3ccccc3F)n(C)c(=O)c2s1	2.7
-2.5	-4.6	COc1ccc(NC(=O)Nc2ccc3c(c2)C(=O)N([C@@H](C)CO)C[C@H](C)[C@@H](CN(C)C(=O)CCC(F)(F)F)OCCCC[C@@H](C)O3)cc1	0.4
2.9	-0.3	C[C@H](CO)N1C[C@H](C)[C@H](CN(C)C(=O)NC2CCCCC2)Oc2ccc(NC(=O)C3CC3)cc2C1=O	-1.7
-1.4	3.7	CC(C)c1ccc(S(=O)(=O)NCCCN2CCOCC2)cc1	-1.4
0.7	14.2	C[C@@H]1CN([C@H](C)CO)C(=O)c2cc(-c3cccc(C#N)c3)cnc2O[C@H]1CN(C)Cc1cncnc1	-1.8

Screens: PubChem BioAssay, Broad Institute
